GLA inh pH 4.5 – inhibitors of human alpha-galactosidase A at pH 4.5; 230,000 tested, under 10 active; activity change, negative = inhibition, % at 105 µM; P06280; purified enzyme, 4-MU-alpha-Gal fluorescence, pH 4.5; inconclusive = small, poorly fitted or top-dose-only inhibition, or a rising curve; inactive = flat fitted curve, though single readings scatter; no compound was filed as active;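 also: 0% = full activity with enzyme and -100% = basal without enzyme; dose as in the result columns while the protocol names 77 µM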
Rango-impB inh – inhibitors of Rango-importin beta complex formation. Rango CFP/YFP FRET sensor + importin beta, 45 min. Potency, µM (series often up to 92.2 µM), for the others: at the top dose inhibition of complex formation. AID 540263. hit rate 0.031% among 340,000. Q14974; active = rising FRET ratio curve, often small or poorly fitted; inconclusive = mostly compound fluorescence or quenching in the first reads; inactive = flat curves in all reads;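 also: potency is read from the fitted curve at half-maximal effect; 0% = DMSO wells and 100% = buffer wells lacking importin beta; nearly all actives have a fitted effect of over 15% in size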
Target sequence (Q14974 whole entry, looked up): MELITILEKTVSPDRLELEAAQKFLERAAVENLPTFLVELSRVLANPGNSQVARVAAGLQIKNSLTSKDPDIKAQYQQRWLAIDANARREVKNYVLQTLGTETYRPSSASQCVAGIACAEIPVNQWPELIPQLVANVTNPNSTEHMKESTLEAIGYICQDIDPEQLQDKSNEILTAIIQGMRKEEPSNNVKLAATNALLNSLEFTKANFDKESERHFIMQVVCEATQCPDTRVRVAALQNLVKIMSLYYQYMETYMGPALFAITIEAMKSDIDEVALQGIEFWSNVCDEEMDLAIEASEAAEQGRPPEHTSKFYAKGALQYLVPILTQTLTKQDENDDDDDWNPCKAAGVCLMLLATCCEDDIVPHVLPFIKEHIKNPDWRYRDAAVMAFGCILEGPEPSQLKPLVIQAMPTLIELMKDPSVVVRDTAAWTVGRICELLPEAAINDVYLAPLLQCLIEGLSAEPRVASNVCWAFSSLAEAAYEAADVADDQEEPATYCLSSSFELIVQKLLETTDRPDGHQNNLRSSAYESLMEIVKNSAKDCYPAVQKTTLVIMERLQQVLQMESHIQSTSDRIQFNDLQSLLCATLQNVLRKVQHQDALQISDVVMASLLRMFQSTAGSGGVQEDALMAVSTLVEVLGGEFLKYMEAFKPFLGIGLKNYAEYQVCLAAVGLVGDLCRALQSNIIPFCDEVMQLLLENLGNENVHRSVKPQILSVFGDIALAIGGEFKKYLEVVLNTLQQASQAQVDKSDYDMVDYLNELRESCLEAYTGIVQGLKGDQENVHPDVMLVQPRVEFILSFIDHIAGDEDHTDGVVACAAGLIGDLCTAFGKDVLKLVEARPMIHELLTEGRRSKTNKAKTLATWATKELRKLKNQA
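FRET biosensor Rango (snurportin 1 IBB between N-terminal EYFP and C-terminal Cerulean), 50 nM in PBS/1 mM DTT/0.02% Tween-20/0.1% BSA, preincubated 5 min RT with compound; 0.125 microM importin beta added, 45 min RT, CFP/YFP FRET ratio read.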
miR-21 reporter – raises the signal of a miR-21 reporter | HeLa miR-21 FLuc reporter, luciferase, 48 h | Potency, µM (highest dose often 38.3 µM), for inactives: at the highest dose reporter change, positive = more light | 340,000 tested, under 10 active | AID 2288; active = well fitted rising curve with a large enough effect; inconclusive = small, poorly fitted or top-dose-only effect; inactive = no such curve, though single readings can be large or run the other way;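 also: % of control where 0% means no effect; miR-21 action dims this reporter so a rising signal means less miR-21 action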
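Using DMEM plus 10% FBS, HeLa miR-21-FLuc cells are incubated with test compounds (final up to about 40uM) for 48 hours; firefly luciferase signal is then imaged following reagent-mediated lysis.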
Rango release inh – inhibition of RanGTP-driven Rango-importin beta dissociation; hit rate 0.071% among 340,000; Biochemical FRET Rango-importin beta, RanGTP-induced dissociation; O95149+P62826; Potency, µM (highest dose often 46.1 µM), for the others: top-dose activity change, negative = inhibition; active means falling FRET ratio curve, often poorly fitted, with flat reads before Ran was added; inconclusive means other falling curves, or compound fluorescence or quenching; inactive means flat or rising ratio curve;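 also: potency is read from the fitted curve at half-maximal effect; % of control where 0% means no effect; nearly all actives have a fitted effect of over 45% in size; -100% = wells without RanGTP and RCC1; the record marks most hits as doubtful in a second field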
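Quantitative HTS using a FRET biosensor: 0.1 uM Rango, 0.25 uM importin beta, 0.6 uM Ran, 2 mM GTP, 0.2 uM RCC1 final, PBS with DTT, Tween-20 and BSA. Post-read taken 45 min after Ran addition.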
* hit, by the source's call; ? = inconclusive; / = not tested or not shown. Some of the compounds tested (hit frequency here may not be typical).

GLA inh pH 4.5	Rango-impB inh	miR-21 reporter	Rango release inh	Compound
-5	2.8%	-1%	9%	Cc1onc(-c2ccccc2)c1C(=O)N1CCN(CCc2ccccc2)CC1
4	3.7%	-2%	-10%	CCCCOC(=O)NC1CCS(=O)(=O)C1 (stereo not drawn)
1	0.6%	-4%	1%	CC(C)C(NC(=O)C1CCCCC1)C(=O)Nc1ccccn1 (stereo not drawn)
-2	2.0%	1%	1%	C/C(CC1CC(COCC(C)C)OC1=O)=N\NC(N)=S (stereo not drawn)
4	-0.3%	-14%	6%	CCOC(=O)c1c(C)nc2ccccc2c1C
-11	-0.1%	-30%	-7%	O=C(Nc1nnc(CCN2CCOCC2)s1)c1ccccc1
/	2.3%	/	-9%	COc1ccc(C2COc3cc(O)ccc3C2)c(OC)c1O (stereo not drawn)
/	5.7%	-8%	9%	O=C(Nc1cccc([N+](=O)[O-])c1)c1ccc2nsnc2c1
7	-1.2%	-1%	-9%	CN1CC(=O)N(CC(=O)Nc2cccc(S(=O)(=O)N3CCOCC3)c2)C1=O
1	-1.1%	-3%	30%	O=C(O)C1CCCN1S(=O)(=O)c1ccc2ccccc2c1 (stereo not drawn)
/	2.2%	-5%	9%	COc1ccc2[nH]c(C(=O)N3CCC(n4nccc4NC(=O)C4CC4)CC3)c(C)c2c1
0	-1.4%	-2%	-13%	CN(C)c1ccnc(-n2cccc2/C=N/OCc2ccc(F)cc2Cl)c1C#N
/	-1.4%	-3%	-5%	CCOc1ccc(NC(=O)c2ccc(Cn3nc(C)cc3C)o2)cc1
/	4.9%	22%	17%	COc1ccccc1/C=N/NC(=O)c1cc2c(OC)c(OC)ccc2[nH]1
/	3.3%	/	-10%	CCC(=O)NC(c1cc(Cl)c2cccnc2c1O)C(C)C (stereo not drawn)
/	5.0%	-1%	41%	COc1cc(OC)c(NC(=O)c2sc3ncn(CC(=O)N4CCN(c5ccccn5)CC4)c(=O)c3c2C)cc1Cl
-13	3.6%	0%	-1%	COC(=O)c1ccc(N2CCN(S(=O)(=O)c3ccc(C)cc3)CC2)c([N+](=O)[O-])c1
/	-1.9%	0%	-1%	COc1cccc(CNC(=O)CN(C)S(=O)(=O)c2ccc3c(c2)CC(C)N3C(C)=O)c1 (stereo not drawn)
/	-5.4%	/	11%	CC1O[C@@H]2O[C@](O[C@H](C)CC[C@@H](C)O)(c3ccccc3)O[C@@H]2C[C@H]1O (stereo partly drawn)
-8	?	?	-18%	CC(=O)Nc1ccc(Nc2c3ccccc3nc3ccccc23)cc1
1	1.0%	-2%	-7%	COC(=O)COn1c(SC(C)C)nc2ccccc2c1=O
-8	-0.8%	-9%	15%	CCN(CC)CC(=O)Nc1cccc2c1C(=O)c1ccccc1C2=O
/	-1.1%	/	1%	CC(C)CN(C(=O)C1=NN(c2ccccc2)C(=O)CC1)c1c(N)n(Cc2ccccc2)c(=O)[nH]c1=O
10	-0.8%	0%	-14%	CS(=O)(=O)N1CCc2cc(C(=O)N3CCCC3)ccc21
/	-4.0%	/	-21%	CCc1nc(N)nc(N)c1-c1ccc(Cl)c([N+](=O)[O-])c1

Looked up by structure from above, 5 records:
GLA inh pH 4.5	Rango-impB inh	miR-21 reporter	Rango release inh	Compound
10	-0.8%	0%	-14%	CS(=O)(=O)N1CCc2cc(C(=O)N3CCCC3)ccc21
/	-5.4%	/	11%	CC1O[C@@H]2O[C@](O[C@H](C)CC[C@@H](C)O)(c3ccccc3)O[C@@H]2C[C@H]1O (stereo partly drawn)
-13	3.6%	0%	-1%	COC(=O)c1ccc(N2CCN(S(=O)(=O)c3ccc(C)cc3)CC2)c([N+](=O)[O-])c1
1	0.6%	-4%	1%	CC(C)C(NC(=O)C1CCCCC1)C(=O)Nc1ccccn1 (stereo not drawn)
-2	2.0%	1%	1%	C/C(CC1CC(COCC(C)C)OC1=O)=N\NC(N)=S (stereo not drawn)

(continued)
GLA inh pH 4.5	Rango-impB inh	miR-21 reporter	Rango release inh	Compound
-5	-0.5%	1%	-16%	CCOC(=O)c1c(O)c2cc(Cl)ccc2n(CC)c1=O
/	3.1%	-5%	1%	COCCCNc1nc2ccccc2nc1NS(=O)(=O)c1cccc(C)c1
6	0.0%	-26%	-11%	CCN(CC)c1ccc(CNc2ccc(Br)cn2)cc1
/	-1.4%	-4%	-2%	CCOC(=O)c1cccc(C(=O)OCC)n1
/	-4.6%	0%	13%	CCCc1nnc(NS(=O)(=O)c2ccccc2)s1
/	-1.1%	0%	-5%	O=c1[nH]cccc1-c1nc2ccccc2n1Cc1ccc(F)cc1
-4	-2.3%	-1%	-5%	O=C(Cc1ccccc1)NCC(=O)Nc1cccc(Br)c1
/	1.4%	-5%	-19%	Cc1cc(C(=O)N/N=C/c2ccc(N(C)C)o2)cs1
8	-1.2%	-17%	7%	O=C(Nc1ncc2c(n1)-c1ccccc1CC2)c1ccccc1
/	-2.7%	16%	-2%	COc1cc(NC(=O)C2CC(c3ccccc3Cl)=NO2)cc(OC)c1OC (stereo not drawn)
-2	2.1%	2%	0%	CS(=O)(=O)N1CCC(C(=O)NCc2ccccc2)CC1
/	4.5%	-12%	3%	COc1ccccc1/C=C1/SC(=S)N(CCC(=O)Nc2cccnc2)C1=O
/	-5.4%	13%	-19%	CC(C)c1cc(CNC(=O)c2ccc(OC3CCN(Cc4ccccn4)CC3)cc2)on1
-8	1.9%	-11%	-10%	COc1cccc(N2CCN(Cc3nc(N)nc(N4CCCc5ccccc54)n3)CC2)c1
11	0.2%	-8%	12%	O=C(CCS(=O)(=O)c1cccc2nsnc12)N1CCN(Cc2ccc3c(c2)OCO3)CC1
/	-6.8%	/	-11%	CC1CCN(C(=O)CN2C(=O)C(=O)N(C(C)C)C2=O)c2ccccc2S1 (stereo not drawn)
4	3.1%	-56%	-12%	CN(C)c1ccc(NC(=O)c2cccc(N3C(=O)C4C5C=CC(C5)C4C3=O)c2)cc1 (stereo not drawn)
-8	2.2%	-8%	?	Cc1ccccc1NC(=S)NCC1CCC(CNC(=S)Nc2ccccc2C)CC1 (stereo not drawn)
/	-2.0%	/	-2%	Cc1ccc(-c2nnc(SCC(=O)NCC3CCCO3)nc2-c2ccc(C)cc2)cc1 (stereo not drawn)
/	-0.7%	-29%	0%	CS(=O)(=O)CCC(C(=O)Nc1ccc2c(c1)OCO2)N1Cc2ccccc2C1=O (stereo not drawn)
/	0.0%	0%	3%	C[C@H](NC(=O)[C@H](Cc1ccccc1)n1c(=O)[nH]c2ccccc2c1=O)C(=O)N1CCC(C(=O)O)CC1
/	-1.9%	20%	17%	CCC(C)[C@H](NC(=O)N1CCn2c1nc1ccccc12)C(=O)NCc1ccc(OC)cc1 (stereo partly drawn)
/	-1.2%	/	-13%	CC(=O)Nc1ccc(SCC(=O)NNC(=O)CN(C)S(=O)(=O)c2ccc(C)cc2)cc1
/	0.5%	1%	-9%	CCOc1ccc(N(CC(=O)N2CCN(c3ccccc3OC)CC2)S(=O)(=O)c2ccc(C)cc2)cc1
/	-0.8%	16%	0%	Cc1cc(=O)[nH]c(Nc2cccc(Br)c2)n1

A second format for some results above.
Under each structure: GLA inh pH 4.5	Rango-impB inh	miR-21 reporter	Rango release inh
> O=C(Nc1ncc2c(n1)-c1ccccc1CC2)c1ccccc1
    8	-1.2%	-17%	7%
> COc1cc(NC(=O)C2CC(c3ccccc3Cl)=NO2)cc(OC)c1OC (stereo not drawn)
    /	-2.7%	16%	-2%

Additional compounds
GLA inh pH 4.5	Rango-impB inh	miR-21 reporter	Rango release inh	Compound
/	2.0%	-12%	-12%	CCn1c(SCCN2CCOCC2)nc2c1c(=O)n(C)c(=O)n2C
8	5.6%	-9%	-13%	O=C(CCS(=O)(=O)c1ccc(Cl)cc1)NCCN1C(=O)S/C(=C\c2ccccc2F)C1=O
-19	2.3%	-7%	-9%	Cc1nc2sc3c(c2c(=O)n1/N=C/c1cccnc1)CCCC3
/	-3.4%	/	10%	O=C1CCc2cc(S(=O)(=O)Nc3ccccc3Cl)ccc2N1
/	0.7%	/	-5%	O=C(COC(=O)c1ccc(Cl)nc1)Nc1ccc2c(c1)CCC2
/	1.7%	5%	-8%	COc1cc(C(=O)N/C(=C\c2cn(C)c3ccccc23)C(=O)N2CCOCC2)cc(OC)c1OC
-2	4.8%	-2%	3%	CCC(CC)C(=O)Nc1cccc(C(=O)c2ccccc2)c1
/	?	0%	-13%	NS(=O)(=O)c1ccc(-c2ccc(/C=C3\NC(=S)NC3=O)o2)cc1
-3	?	-4%	-7%	CC1(C)CC(=O)C2=C(C1)OC(N)=C(C#N)C2c1ccc[nH]1 (stereo not drawn)
/	-1.5%	/	13%	CC1CCN(S(=O)(=O)c2ccc(C(=O)N(C)C3CCS(=O)(=O)C3)cc2)CC1 (stereo not drawn)
2	-1.4%	-1%	30%	Cc1[nH]c2ccccc2c1/C=N/NC(=O)c1cccc([N+](=O)[O-])c1
7	-1.3%	7%	3%	CC(C(=O)OCC(=O)Nc1ncc(Cl)cc1Cl)N1C(=O)c2ccccc2C1=O (stereo not drawn)
/	-2.6%	/	-22%	Nc1ccc(S(=O)(=O)NCC(=O)OCCOc2ccccc2)cc1[N+](=O)[O-]
-9	0.4%	-45%	-12%	C=CCOc1ccc(/C(O)=C2/C(=O)C(=O)N(CCCn3ccnc3)C2c2cccs2)cc1 (stereo not drawn)
/	-1.0%	-9%	3%	Cc1ccc(NC(=O)c2ccc(C)c(NC3=NC4CS(=O)(=O)CC4S3)c2)cc1C (stereo not drawn)
7	2.3%	2%	0%	Cc1cc(C)c(S(=O)(=O)NCC(CCC(=O)O)C(F)(F)F)c(C)c1 (stereo not drawn)
/	0.7%	-2%	0%	CN(CCC#N)C(=O)COC(=O)[C@H](Cc1ccccc1)N1C(=O)c2ccccc2C1=O
/	-2.1%	-5%	-5%	COc1ccc(C(=O)NC(C)c2nccs2)cc1OC1CCN(C(C)C)CC1 (stereo not drawn)
-6	?	-2%	?	COc1cc2c(cc1OC)C1(Nc3c-2c(-c2ccccc2)nn3-c2ccccc2)C(=O)Nc2ccccc21 (stereo not drawn)
7	-0.3%	-4%	-14%	COc1ccc(N2CCN(CC(=O)NCc3ccccc3)CC2)cc1
10	-1.1%	0%	1%	COc1ccc(F)c(CN2CCC(N3CCC(C(=O)N4CCOCC4)CC3)CC2)c1
-25	?	/	1%	Cc1cccc(C2=NN(c3ccccc3)[C@@H](C(=O)N3CCOC3=O)[C@@H]2C)c1
-20	-0.6%	1%	-13%	CCn1c(SCC(=O)N/N=C/C=C/c2ccco2)nc2ccccc21
/	2.4%	-2%	8%	CC(=O)c1ccc(C(=O)N2CCC(n3nccc3NC(=O)C3CC3)CC2)cc1
/	-3.0%	/	10%	CCN(CC(=O)Nc1ccc(OC)cc1)C(=O)c1ccc(N2C(=O)CCC2=O)cc1
3	2.2%	-5%	-4%	CCOC(=O)C1CCCN(c2nnnn2-c2ccccc2)C1 (stereo not drawn)
/	0.7%	/	10%	CC(C)(C)OC(=O)C[C@@H]1C/C=C\C[C@H](CC(=O)N(CCO)Cc2ccccc2)C(=O)N[C@@H](c2ccccc2)COC1=O
/	0.0%	-1%	31%	O=C(NNS(=O)(=O)c1ccc(F)cc1)C1CCCCC1
/	-1.4%	-10%	-13%	Cc1ccnc(NS(=O)(=O)c2ccc(NC(=O)c3ccccc3F)cc2)n1
-1	-0.6%	12%	-2%	CCN(CC)S(=O)(=O)c1cccc(NC(=O)/C=C/c2cccc([N+](=O)[O-])c2)c1
0	-2.9%	-4%	31%	CC(C)(C)C(=O)N1N=C(c2cccc(NS(C)(=O)=O)c2)CC1c1cccs1 (stereo not drawn)
/	3.4%	-2%	0%	Cc1ccc(-c2c(C(=O)N/N=C/c3ccsc3)nnn2-c2nonc2N)cc1
-17	?	0%	-22%	CCN(CC)c1cc(NCCO)c([N+](=O)[O-])c2nonc12
/	0.1%	/	0%	Cc1cc(C(=O)COC(=O)COc2ccccc2C#N)c(C)n1CC1CCCO1 (stereo not drawn)
-11	-0.4%	-24%	2%	COc1ccc(-c2cc(C(=O)N3CCCc4ccccc43)no2)cc1
/	-3.3%	/	0%	CC(=O)c1ccc(OCCCC(=O)N(CCC2=CCCCC2)c2c(N)n(Cc3ccccc3)c(=O)[nH]c2=O)cc1
/	0.6%	/	-13%	COc1ccc(S(=O)(=O)n2cccc2)cc1
